KCNQ2 block: KCNQ2 channel blockers in CHO-K1 cells – cell-based, FluxOR thallium flux, B-score, primary screen (AID 2156). 20 min; active compounds read low; only compounds with negative scores are shown here; some inactives read as strong as hits. B-score at 10 µM. actives 1.1% (n = 310,000);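 active = fluorescence ratio B-score at most minus 3 library SDs, with starting brightness B-score within 2 library SDs, cut at about -5.5 in these data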
Target sequence (O88943 whole entry, looked up): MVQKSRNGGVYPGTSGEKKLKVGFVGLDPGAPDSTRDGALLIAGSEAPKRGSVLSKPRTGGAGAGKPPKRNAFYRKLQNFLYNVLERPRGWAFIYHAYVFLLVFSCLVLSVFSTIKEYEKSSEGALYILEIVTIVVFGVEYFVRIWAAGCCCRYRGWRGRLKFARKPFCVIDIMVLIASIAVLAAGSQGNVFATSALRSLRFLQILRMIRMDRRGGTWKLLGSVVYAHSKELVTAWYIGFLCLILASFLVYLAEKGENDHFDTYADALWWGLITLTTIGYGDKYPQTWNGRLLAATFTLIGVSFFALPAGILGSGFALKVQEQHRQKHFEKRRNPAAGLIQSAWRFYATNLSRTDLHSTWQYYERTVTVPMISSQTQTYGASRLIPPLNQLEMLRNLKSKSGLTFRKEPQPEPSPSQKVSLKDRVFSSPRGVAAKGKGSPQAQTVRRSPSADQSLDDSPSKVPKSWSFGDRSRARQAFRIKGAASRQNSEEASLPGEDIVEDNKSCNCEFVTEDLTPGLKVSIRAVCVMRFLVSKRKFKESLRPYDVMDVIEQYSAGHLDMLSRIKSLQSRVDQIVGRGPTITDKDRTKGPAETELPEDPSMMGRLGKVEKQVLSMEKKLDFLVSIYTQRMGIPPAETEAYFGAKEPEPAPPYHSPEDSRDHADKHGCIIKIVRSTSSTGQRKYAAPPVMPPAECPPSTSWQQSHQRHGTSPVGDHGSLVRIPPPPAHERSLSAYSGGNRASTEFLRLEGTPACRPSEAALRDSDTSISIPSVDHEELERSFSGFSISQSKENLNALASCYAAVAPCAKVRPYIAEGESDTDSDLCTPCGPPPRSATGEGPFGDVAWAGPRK
KCNQ2 block baseline: recorded beside KCNQ2 block, whose call it bears; B-score; measured here: initial fluorescence intensity artifact check;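 brightness before thallium and not channel activity; 0 = typical well and far values either way flag optical interference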
Starred values were filed as active, the others as inactive; i = inactive. This is a subset (hit frequency here may not be typical).

SMILES | KCNQ2 block | KCNQ2 block baseline
COc1ccc(CCNC(=O)c2cnccn2)cc1 | i | 0.48
O=C(O)CP(=O)(c1ccccc1)c1ccccc1 | i | 0.66
Cc1nc(C(=O)NCc2ccccc2)sc1C1(C)CC(c2cccnc2)=NO1 (configuration not stated) | i | 1.03
Cc1ccc(NS(=O)(=O)c2ccc(C(=O)N3CCCCCCC3)cc2)cc1 | i | 3.75
N#Cc1ccc(S(=O)(=O)Nc2ccc3ccccc3n2)cc1 | i | 1.95
CC1CCCN(S(=O)(=O)c2ccc(C(=O)Nc3nnc(-c4ccncc4)o3)cc2)C1 (configuration not stated) | i | 1.24
COc1ccc2c(c1OC)C(=O)OC2Nc1ncccc1C (configuration not stated) | i | 0.87
O=C(N[C@H](C(=O)O)c1ccccc1)C1CCC(Cn2cnc3ccccc3c2=O)CC1 (some centres not stated) | i | 0.29
Cc1nn(Cc2ccc(Cl)c(Cl)c2)c(C)c1NC(=O)c1cc(CC(C)C)on1 | i | 0.01
COC(=O)c1ccc(-n2c(C)cc(C(=O)CSc3ccc(NC(C)=O)cc3)c2C)cc1 | i | 1.99
O=C1CN(C(=O)c2c(F)cccc2F)C(c2ccc(F)cc2)c2cc(F)ccc2N1 (configuration not stated) | i | 1.37
Cc1cc(C)cc(-n2ncc3c2CCCC3NC(=O)c2cc(C)[nH]n2)c1 (configuration not stated) | i | 0.2
Cn1nnc(NCc2cc(Br)ccc2OCc2cccs2)n1 | i | 0.14
COc1ccnc(CN(C)C(=O)C2CCC(=O)N(CCN(C)C)C2)c1 (configuration not stated) | i | -1.65
Cn1cccc1C(=O)NCCc1ccc(Cl)cc1 | i | 0.08
CCN(CC)CCN1C(=O)c2oc3ccccc3c(=O)c2C1c1ccc(C)cc1 (configuration not stated) | i | 0.96
Cc1cccc(NC(=O)Cn2c(=O)n(Cc3ccccc3)c(=O)c3c(C)c(C)sc32)c1 | i | 0.43
O=C(CNC(=O)c1ccc(Cl)cc1Cl)NCCCn1ccnc1 | i | -0.14
C=CCn1c(CCNC(=O)c2ccccc2F)nnc1SCC(=O)Nc1ccccc1F | i | 1.57
CCCCc1ccc(-c2csc(/C(C#N)=C/c3ccco3)n2)cc1 | i | -2.52
COc1ccc(-c2nnc3ccc(SCC(=O)N4CCCCCC4)nn23)cc1OC | i | 1.72
CCO/C(C)=C1\C(=O)N(CC)c2ccccc21 | i | -0.44
CC(C)c1ccc(NC2(C#N)C(=O)Nc3ccccc32)cc1 (configuration not stated) | i | 1.57
CC(=O)Nc1ccc(NC(=O)Cn2c(CC(=O)N3CCCC3)nc3ccccc32)cc1 | i | 0.44
CC(=O)NC(C)C(=O)OCC(=O)Nc1ccc(Br)cc1 (configuration not stated) | i | 0.93
Cc1nn2cc(-c3cccc(Cl)c3)cnc2c1Cl | i | -0.23
COc1ccc(N2CCN(CC(=O)c3ccccc3)CC2)cc1 | i | -0.04
CC(Cc1c[nH]c2ccccc12)C(=O)O (configuration not stated) | i | -0.99
Cc1ccc(N(C(=O)Nc2ccccc2)C2=NCC(C)S2)cc1 (configuration not stated) | i | 0.63
CC(=O)N1C(c2ccccc2)CC(=O)OC1c1ccc2c(c1)OCO2 (configuration not stated) | i | 0.71
COCc1c(Br)c(C)nc(OCC(=O)N/N=C/c2cc(C)n(-c3ccc([N+](=O)[O-])cc3)c2C)c1C#N | i | 0.57
CCOC(=O)c1c(CN2CCC(C)CC2)n(C)c2cc(Br)c(OC)cc12 | i | 0.52
COc1cc(/C=N/NC(=O)c2ccc(Cn3cc([N+](=O)[O-])cn3)o2)cc(Br)c1O | i | 0.66
Cc1ccc(NC(=O)CC2SC3=NCCN3C2=O)cc1 (configuration not stated) | i | 0.47
COC(=O)c1ccc(/C=N/N2C(C)CCCC2C)cc1 (configuration not stated) | i | -0.8
COc1cccc(C(=O)NCC(=O)OCc2ccc(F)cc2Cl)c1 | i | 1.96
CCCC(=O)N1CCN(c2ccc(NC(=S)NC(=O)c3cccc(C)c3)cc2)CC1 | i | 0.45
CC(C)(C)c1cc(Cc2ccccc2)[nH]n1 | i | -0.01
Cc1cc2nnc(SCC(=O)N(C)C3CCS(=O)(=O)C3)n2c2ccccc12 (configuration not stated) | i | 0.91
CCc1ccc(N2C(=O)Cc3c2nc(N)c(C#N)c3N)cc1 | i | 1.98
O=C(Nn1cnc2ccccc2c1=O)c1ccc(F)cc1Cl | i | 0.84
COc1ccc(N2CCN(Cc3cc(=O)oc4cc(-c5ccccc5)c(O)cc34)CC2)cc1 | i | -0.23
COc1ccc(NC(=O)c2cccc(N3C(=O)C4CC=C(C)CC4C3=O)c2)c(OC)c1 (configuration not stated) | i | 0.01
COc1ccc(N2CCN(C(=O)c3ccc(S(=O)(=O)N4CCOCC4)cc3)CC2)cc1 | i | 1.1
CC(C)CCC1(CCNC(=O)c2cccs2)CCOC(C)(C)C1 (configuration not stated) | i | -0.98
COC(=O)C(CCSC)NC(=O)CNS(=O)(=O)c1ccc(Br)cc1 (configuration not stated) | i | -0.41
CCOC(=O)C(=O)Nc1nc(-c2ccccc2)c(-c2ccccc2)o1 | i | 1.57
COc1ccc(OC)c(S(=O)(=O)N2CCCC(C(=O)NCc3ccco3)C2)c1 (configuration not stated) | i | -0.27
O=C(Nc1ccc2c(c1)OCO2)N1CCOCC1 | i | -1.05
N#CCCN(C(=O)COC(=O)C1CCN(S(=O)(=O)c2ccc3c(c2)OCCO3)CC1)c1ccccc1 | i | 0.49
Cn1nc(C(F)(F)F)c(C#N)c1N1CCN(c2ccc(F)cc2)CC1 | i | 0.81
CCCCCN(C(=O)CCC(=O)OCc1cccc(F)c1)c1c(N)n(CCCC)c(=O)[nH]c1=O | i | -0.46
CNc1ccc(OC)cc1-n1cnc(-c2ccc([N+](=O)[O-])cc2)c1 | i | 1.8
N#Cc1cc(C(=O)c2ccccc2O)cn(-c2nccs2)c1=O | i | 2.98
CCCCCCC#Cc1ccc2c(c1)COc1c3ccccc3nn1-2 | i | 0.87
C=CCOC(=O)C1=C(C)NC(C)=C(C(=O)OCC=C)C1/C=C/c1ccccc1 | i | -0.01
Cc1nnc(SCC(=O)N(CC(C)C)c2c(N)n(CC(C)C)c(=O)[nH]c2=O)n1-c1ccccc1 | i | -0.36
COc1ccc(CNC(=O)C(c2cccs2)N(Cc2ccco2)C(=O)Cc2cccs2)cc1 (configuration not stated) | -14* | -0.15*
O=C(CSc1nnc(CNC(=O)c2c(F)cccc2F)o1)NCc1ccccc1Cl | i | 2.56
COC(=O)CC1COc2ccccc2N1C(=O)c1ccc(C(C)(C)C)cc1 (configuration not stated) | -6.81* | 0.9*

Further records
SMILES | KCNQ2 block | KCNQ2 block baseline
O=C(O)c1cc(O)c2c(c1)C(=O)c1cccc(O)c1C2=O | i | 6.39
CCc1ccc(C(=O)C[n+]2cccc3cc(OC)ccc32)cc1 | i | 3.34
CCN1CCN(c2ccc(S(=O)(=O)N3CCCCC3)cc2NC(=O)Cc2c(Cl)cccc2Cl)CC1 | i | -0.9
CCOP(=O)(c1ccc(N(C)C)cc1)C(O)c1cccnc1 (configuration not stated) | i | 1.15
O=C(NC1CCCc2ccccc21)c1ccccc1 (configuration not stated) | i | -0.32
O=C(O)CCCCCNC(=O)c1cccc(Br)c1 | i | -0.03
CN(C)CCN=Cc1c(O)n(Cc2ccc3c(c2)OCO3)c(=O)c2ccccc12 | i | 2.34
OC(CNCc1ccc(F)cc1)(c1ccc(F)cc1)c1ccc(F)cc1 | i | 0.41
O=C(c1cc(-c2cccc(O)c2)on1)N1CCc2ccccc2C1 | i | 0.07
CCOc1ccc(NC(=O)CSc2nccn(-c3ccc4c(c3)OCCO4)c2=O)cc1 | i | 1.67
Cc1ccc(N2C(=O)C(Cl)=C(N3CCN(C)CC3)C2=O)c(C)c1 | i | 1.98
CCc1ccccc1NC(=O)/C(=C/c1ccco1)c1ccccc1 | -7.69* | 0.56*
Cc1ccc2c(C)ccc(O)c2n1 | i | 1.32
O=C(COC(=O)c1ccncc1)NCc1ccccc1 | i | -0.21
COc1ccc(CCNC(=O)C2CC3Cn4c(nc5cc(C)c(C)cc54)C3N2C)cc1 (configuration not stated) | i | -1.45
CCN(CC(=O)NCc1ccc(Cl)cc1)C(=O)Cc1ccccc1[N+](=O)[O-] | i | -0.63
COc1cc(C(C[N+](=O)[O-])c2c(-c3ccccc3)cc3ccccn23)cc(OC)c1OC (configuration not stated) | i | -0.24
O=Cc1ccc(-n2cncn2)cc1 | i | 0.49
COc1c(CC=C(C)C)cc(C2CC(=O)c3c(O)cc(O)cc3O2)c(CC=C(C)C)c1O (configuration not stated) | -5.82* | -1.01*
Cc1c(OCC(=O)N[C@@H](Cc2ccccc2)C(=O)O)ccc2c1oc(=O)c1ccccc12 | i | -1.6
Cc1ccc(NC(=O)CSc2nnc(Cc3cccn3C)n2-c2ccc(F)cc2)c(C)c1 | i | 0.29
CS(=O)(=O)N(CC(=O)NCc1ccccc1Cl)C1CCCCC1 | i | -1.08
O=C(CCc1ccccc1)Nc1nnc(-c2cccs2)o1 | i | 1.26
CC(C)c1ccccc1NC(=O)COC(=O)CNC(=O)c1ccc(Br)cc1 | i | 0.11
O=C(c1cccc(C(F)(F)F)c1)N1CCN(C2CCCCC2)CC1 | i | -1.13
c1ccc(-n2nnnc2CN2CCOCC2)cc1 | i | 1.83
CCc1ccc(C2C(C#N)=C(N)SC(N)=C2C#N)cc1 | i | 1.93
COC1CCCN(C(=O)c2ccc(OC3CCN(CCc4ccccc4)CC3)cc2)C1 (configuration not stated) | i | 0.02
CCCn1cc(CN2CCC(n3nccc3NC(=O)CCOc3ccccc3)CC2)c(C)n1 | i | 0.38
COc1ccc(OCCSc2nnc(CC(=O)Nc3cccc(Cl)c3Cl)n2C)cc1 | -8.14* | 0.73*
COCCNC(C(=O)Nc1cc(Cl)cc(Cl)c1)c1ccccc1 (configuration not stated) | -8.06* | 0.45*
O=C(Cc1cccs1)NCc1cccc(C(F)(F)F)c1 | i | -1.41
COc1ccc(CCNC(=O)C(NC(=O)OCc2ccccc2)C(C)C)cc1OC (configuration not stated) | i | 0.09
COc1ccc(S(=O)(=O)N2CCSC2C)cc1C (configuration not stated) | i | -1.26
CC1CCc2nc3ccc(S(=O)(=O)N4CCC(C(=O)NCc5ccccc5Cl)CC4)cc3c(C(=O)O)c2C1 (configuration not stated) | i | -2.17
CCN(CC)CCOC(=O)c1ccc(N/C=C(/C#N)c2nc(-c3ccc(OC)c(OC)c3)cs2)cc1 | i | -2.09
O=C(O)C1CC=CCC1C(=O)NCc1ccccc1 (configuration not stated) | i | 0.86
CCC(=O)NCCN1CCN(C(=O)CC)CC1 | i | 0.65
C/C(=N\NC(N)=O)c1ccccc1 | i | -0.48
Cc1ccc(/C=C(\NC(=O)c2ccccc2)C(=O)OCc2ccccc2)cc1 | i | -0.14
COC(=O)c1[nH]c2ccc(F)cc2c1NS(=O)(=O)c1ccc(OC)cc1 | i | 0.23
CCOC(=O)N1CCC(NC(=O)CS(=O)(=O)Cc2nc(-c3ccc(C)cc3)oc2C)CC1 | i | -0.13
C=CCNc1nc(NCCO)nc(N2CCCC2)n1 | i | 0.12
Cc1ccnc2nc(C(=O)NCc3cccs3)nn12 | i | 2.41
Cc1ccc(N=CC=C2OC(C)(C)C(C)(C)O2)c(C)c1 | i | 1.69
COc1ccc(Cl)cc1N(CC(=O)NCC(C)C)S(=O)(=O)c1ccc(C)c([N+](=O)[O-])c1 | i | 0.65
Cc1cc(C)cc(NC(=O)Cn2cc3c(n2)CCCCC3)c1 | i | 0.93
Cc1ccc2nc(-c3ccc(NS(=O)(=O)c4c(C)n(C)c(=O)n(C)c4=O)cc3)sc2c1 | i | -0.65
COc1ccc(CNC(=O)CN2C(=O)C3CCCN3c3ncc(Cl)cc32)cc1 (configuration not stated) | i | 0.15

Molecules above that contain a Cl atom:
SMILES | KCNQ2 block | KCNQ2 block baseline
Cc1nn(Cc2ccc(Cl)c(Cl)c2)c(C)c1NC(=O)c1cc(CC(C)C)on1 | i | 0.01
Cn1cccc1C(=O)NCCc1ccc(Cl)cc1 | i | 0.08
O=C(CNC(=O)c1ccc(Cl)cc1Cl)NCCCn1ccnc1 | i | -0.14
Cc1nn2cc(-c3cccc(Cl)c3)cnc2c1Cl | i | -0.23
COc1cccc(C(=O)NCC(=O)OCc2ccc(F)cc2Cl)c1 | i | 1.96
O=C(Nn1cnc2ccccc2c1=O)c1ccc(F)cc1Cl | i | 0.84
O=C(CSc1nnc(CNC(=O)c2c(F)cccc2F)o1)NCc1ccccc1Cl | i | 2.56
CCN1CCN(c2ccc(S(=O)(=O)N3CCCCC3)cc2NC(=O)Cc2c(Cl)cccc2Cl)CC1 | i | -0.9
Cc1ccc(N2C(=O)C(Cl)=C(N3CCN(C)CC3)C2=O)c(C)c1 | i | 1.98
CCN(CC(=O)NCc1ccc(Cl)cc1)C(=O)Cc1ccccc1[N+](=O)[O-] | i | -0.63
CS(=O)(=O)N(CC(=O)NCc1ccccc1Cl)C1CCCCC1 | i | -1.08
COc1ccc(OCCSc2nnc(CC(=O)Nc3cccc(Cl)c3Cl)n2C)cc1 | -8.14* | 0.73*
COCCNC(C(=O)Nc1cc(Cl)cc(Cl)c1)c1ccccc1 (configuration not stated) | -8.06* | 0.45*
CC1CCc2nc3ccc(S(=O)(=O)N4CCC(C(=O)NCc5ccccc5Cl)CC4)cc3c(C(=O)O)c2C1 (configuration not stated) | i | -2.17
COc1ccc(Cl)cc1N(CC(=O)NCC(C)C)S(=O)(=O)c1ccc(C)c([N+](=O)[O-])c1 | i | 0.65
COc1ccc(CNC(=O)CN2C(=O)C3CCCN3c3ncc(Cl)cc32)cc1 (configuration not stated) | i | 0.15

High-throughput results (PubChem)
